Bioassay records as filed in PubChem.
GLA inh pH 4.5 – alpha-galactosidase A (human) inhibition, pH 4.5. P06280. purified enzyme, 4-MU-alpha-Gal fluorescence, pH 4.5. activity change, negative = inhibition, % at 105 µM. 230,000 tested, under 10 active; inconclusive = small, poorly fitted or top-dose-only inhibition, or a rising curve; inactive = flat fitted curve, though single readings scatter; no compound was filed as active;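 note: 0% = full activity with enzyme and -100% = basal without enzyme; dose as in the result columns while the protocol names 77 µM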
Rango dissoc inh – inhibitors of RanGTP-induced Rango-importin beta complex dissociation. AID 540253. Potency, µM (series often up to 46.1 µM), without a hit: top-dose activity change, negative = inhibition. Biochemical FRET Rango-importin beta, RanGTP-induced dissociation. O95149+P62826. actives 0.071% (n = 340,000); active means falling FRET ratio curve, often poorly fitted, with flat reads before Ran was added; inconclusive means other falling curves, or compound fluorescence or quenching; inactive means flat or rising ratio curve;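 note: potency is the fitted concentration of half-maximal effect; % of control where 0% means no effect; nearly all actives have a fitted effect of over 45% in size; -100% = wells without RanGTP and RCC1; the record marks most hits as doubtful in a second field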
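FRET read at 45 min, room temperature: inhibitors block the CFP/YFP signal rise when RanGTP (0.6 uM Ran, 2 mM GTP, 0.2 uM RCC1) frees Rango (0.1 uM) from importin beta (0.25 uM). Pre-read after 5 min compound exposure flags interference.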
miR-21 reporter – miR-21 reporter, rising signal; HeLa miR-21 FLuc reporter, luciferase, 48 h; Potency, µM (titrated, usually from 38.3 µM), without a hit: top-dose reporter change, positive = more light; 340,000 tested, under 10 active; active = well fitted rising curve with a large enough effect; inconclusive = small, poorly fitted or top-dose-only effect; inactive = no such curve, though single readings can be large or run the other way;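 note: % of control where 0% means no effect; miR-21 action dims this reporter so a rising signal means less miR-21 action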
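HeLa cells stably expressing CMV-driven firefly luciferase with a downstream miR-21 binding sequence, endogenously expressing miR-21, were treated with titrations (up to about 40uM final) for 48 hours at 37 degree Celsius. Luciferase luminescence was read after lysis.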
Rango-impB inh – inhibitors of Rango-importin beta complex formation | Rango CFP/YFP FRET sensor + importin beta, 45 min | actives 0.031% (n = 340,000) | AID 540263 | Q14974 | Potency, µM (top dose mostly 92.2 µM), inactives show top-dose inhibition of complex formation; active = rising FRET ratio curve, often small or poorly fitted; inconclusive = mostly compound fluorescence or quenching in the first reads; inactive = flat curves in all reads;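 note: potency is the fitted concentration of half-maximal effect; 0% = DMSO wells and 100% = buffer wells lacking importin beta; nearly all actives have a fitted effect of over 15% in size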
Target sequence (Q14974 whole entry, looked up): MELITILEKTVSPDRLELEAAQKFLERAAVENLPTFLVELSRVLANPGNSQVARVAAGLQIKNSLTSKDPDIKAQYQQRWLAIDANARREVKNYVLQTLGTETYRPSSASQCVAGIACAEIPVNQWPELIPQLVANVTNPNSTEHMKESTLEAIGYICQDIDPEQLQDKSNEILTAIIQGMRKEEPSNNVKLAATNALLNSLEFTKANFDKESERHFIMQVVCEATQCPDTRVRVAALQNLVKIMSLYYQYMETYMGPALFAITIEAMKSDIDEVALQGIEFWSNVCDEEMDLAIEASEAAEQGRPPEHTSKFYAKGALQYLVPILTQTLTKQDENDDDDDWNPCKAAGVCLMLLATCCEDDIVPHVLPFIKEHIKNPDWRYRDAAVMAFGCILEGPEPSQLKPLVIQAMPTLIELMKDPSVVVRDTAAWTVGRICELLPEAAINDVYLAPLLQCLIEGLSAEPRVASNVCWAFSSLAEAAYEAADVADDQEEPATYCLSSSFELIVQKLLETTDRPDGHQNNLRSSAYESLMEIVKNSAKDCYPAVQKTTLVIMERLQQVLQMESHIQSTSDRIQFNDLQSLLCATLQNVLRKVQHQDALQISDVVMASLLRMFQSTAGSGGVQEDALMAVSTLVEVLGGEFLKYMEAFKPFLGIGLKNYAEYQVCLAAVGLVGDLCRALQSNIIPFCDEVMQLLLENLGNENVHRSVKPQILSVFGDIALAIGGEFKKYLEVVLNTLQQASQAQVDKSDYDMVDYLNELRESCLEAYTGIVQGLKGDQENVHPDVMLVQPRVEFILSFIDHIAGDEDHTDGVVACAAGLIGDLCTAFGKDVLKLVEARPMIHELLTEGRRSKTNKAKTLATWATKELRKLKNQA
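Inhibition scored from the CFP 486 nm/YFP 530 nm FRET ratio 45 min after adding 0.125 microM importin beta to 50 nM Rango biosensor preincubated 5 min with compound (room temperature, PBS with DTT, Tween-20, BSA). No-importin wells as positive control.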
* marks the source's active call; other numbers are inactive results; u = inconclusive; x = not tested or not shown; & = joins results of further samples.

Abbreviations – A = GLA inh pH 4.5; B = Rango dissoc inh; C = miR-21 reporter; D = Rango-impB inh
> O=C(NCc1ccccc1)C(c1cccnc1)N(C(=O)c1ccccn1)c1ccccc1F (centres undefined)
  A: x	B: -7%	C: 2%	D: -3.9%

> O=C(Nc1ccc(S(=O)(=O)N2CCOCC2)cc1)c1ccc(S(=O)(=O)N2CCOCC2)cc1
  A: x	B: -12%	C: 1%	D: 0.1%

> Cn1c(SCc2ccccc2F)nc2ccccc2c1=O
  A: x	B: 1%	C: x	D: 0.4%

> CCc1c(C(=O)N2CCOCC2)csc1C
  A: -2	B: -7%	C: -4%	D: 1.5%

> COc1ccc(Nc2nc3ccccc3n2C)cc1
  A: x	B: -13%	C: -54%	D: u

> COc1ccccc1-c1cc2nc(C)c(CCC(=O)NC(C)CCc3ccco3)c(C)n2n1 (centres undefined)
  A: 1	B: -17%	C: 12%	D: 0.5%

> C/C(CC(=O)Nc1ccc(N(C)C)cc1)=N\NC(=O)c1ccncc1
  A: -5	B: 3%	C: -5%	D: 0.1%

> CCCOc1ccc(-c2nc(C#N)c(N3CCC(C(N)=O)CC3)o2)cc1
  A: -3	B: 11%	C: -17%	D: 5.1%

> O=C(O)C1Cc2ccccc2CN1S(=O)(=O)/C=C/c1ccccc1 (centres undefined)
  A: 3	B: 2%	C: -5%	D: -1.4%

> CC1=CC(=C2C=CC(=O)C=C2)C=C(C)N1C
  A: -20	B: x	C: -2%	D: x

New compounds follow
Abbreviations – A = GLA inh pH 4.5; B = Rango dissoc inh; C = miR-21 reporter; D = Rango-impB inh
> O=C(O/N=C1/CCSc2ccccc21)c1ccc(F)cc1
  A: 3	B: -4%	C: -6%	D: 6.3%

> O=C(Cn1cc(S(=O)(=O)N2CCCC2)c(S(=O)(=O)N2CCCC2)c1)NCc1ccco1
  A: x	B: -3%	C: 1%	D: -0.1%

> COc1c(F)c(F)c(C(=O)O)c(Nc2ccc(C)cc2)c1F
  A: 1	B: -11%	C: 0%	D: 1.5%

> COc1ccc(C)c(Cn2c(-c3nonc3N)nc3ccccc32)c1
  A: 2	B: 3%	C: 18%	D: -0.8%

> Cc1ccc(S(=O)(=O)N2CCN(C(=S)NCc3ccc4c(c3)OCO4)CC2)cc1
  A: -8	B: 16%	C: 4%	D: -4.1%

> COc1ccc(CCNC(=O)CCc2ccc(S(=O)(=O)NC(C)C)cc2)cc1
  A: 4	B: 5%	C: -5%	D: 0.0%

> CCCCOc1cccc(C(=O)Nc2ccc(N3CCN(CC)CC3)cc2)c1
  A: -9	B: -10%	C: -13%	D: -0.2%

> CC(Sc1nnc(-c2cccnc2)n1N)C(=O)NCCC1=CCCCC1 (centres undefined)
  A: x	B: 2%	C: x	D: -2.1%

> COc1cc2nc(CN3CCN(S(=O)(=O)c4c(F)cccc4F)CC3)[nH]c(=O)c2cc1OC
  A: x	B: 10%	C: x	D: u

> Cc1ccccc1NC(=O)CCNS(=O)(=O)c1ccc2c(c1)CCC(=O)N2
  A: x	B: 1%	C: -4%	D: -2.0%

Structures shown so far with a furan ring, fused or not, in the order listed:
Abbreviations – A = GLA inh pH 4.5; B = Rango dissoc inh; C = miR-21 reporter; D = Rango-impB inh
> COc1ccccc1-c1cc2nc(C)c(CCC(=O)NC(C)CCc3ccco3)c(C)n2n1 (centres undefined)
  A: 1	B: -17%	C: 12%	D: 0.5%

> O=C(Cn1cc(S(=O)(=O)N2CCCC2)c(S(=O)(=O)N2CCCC2)c1)NCc1ccco1
  A: x	B: -3%	C: 1%	D: -0.1%

Next compounds follow.
Abbreviations – A = GLA inh pH 4.5; B = Rango dissoc inh; C = miR-21 reporter; D = Rango-impB inh
> CCCSc1nc2c(c(=O)[nH]c(=O)n2C)n1CC(O)COc1ccccc1 (centres undefined)
  A: 1	B: 0%	C: 4%	D: 4.8%

> O=c1[nH]c2ccccc2n1C1CCCCC1
  A: -1	B: -8%	C: -9%	D: 4.2%

> Cc1cc(N)nc(=O)n1C1CC(O)C(CO)O1 (centres undefined)
  A: x	B: -5%	C: x	D: -2.2%

> CS(=O)(=O)c1cccc(C(=O)Nc2nnc(C3=COCCO3)o2)c1
  A: x	B: 14%	C: x	D: 3.6%

> O=C(C1=C[C@H](c2ccccc2)C[C@H](OCCCCO)O1)N1CCN(Cc2ccccc2)CC1
  A: -2	B: -5%	C: -4%	D: -1.9%

> O=C(NCCCn1ccnc1)c1cn(Cc2ccc(F)cc2)nn1
  A: -15	B: 1%	C: -2%	D: -3.2%

> O=C(CN(C(=O)CNC(=O)c1ccco1)c1ccc(F)cc1)NC1CCCCC1
  A: x	B: -12%	C: 0%	D: 5.4%

> CC1=Nc2ccccc2N=C(NC(=O)CSc2nnnn2-c2ccccc2)C1c1ccccc1 (centres undefined)
  A: -1	B: -4%	C: 5%	D: 2.0%

> Cc1nc2ccc(NC(=O)c3nn(CC(C)C)c(=O)c4ccccc34)cc2s1
  A: -2	B: 3%	C: -25%	D: 0.1%

> COc1ccc(N(C)C(=O)c2ccc(NC(=O)CCS(=O)(=O)c3cccs3)cc2)cc1
  A: x	B: -3%	C: 0%	D: 0.3%

Additional compounds follow:
Abbreviations – A = GLA inh pH 4.5; B = Rango dissoc inh; C = miR-21 reporter; D = Rango-impB inh
> CCOCCn1ccc2c(OCC(=O)Nc3ccccc3F)cccc2c1=O
  A: x	B: 2%	C: x	D: 1.1%

> Cc1ccc(S(=O)(=O)N2CCCN(C(=O)c3ccc(-n4nccc4C)cc3)CC2)cc1
  A: x	B: 13%	C: x	D: -1.5%

> O=[N+]([O-])c1ccc(CNc2cccc(Cl)c2)s1
  A: x	B: -2%	C: 12%	D: 0.3%

> CC1(c2ccc3c(c2)OCO3)NC(=O)N(CC(=O)NCCC2=CCCCC2)C1=O (centres undefined)
  A: -13	B: -2%	C: 1%	D: -3.2%

> CN1CCN(C(=S)c2ccc([N+](=O)[O-])cc2)CC1
  A: 4	B: -17%	C: 0%	D: 3.9%

> O=C(O)C(c1ccccc1)C(O)c1ccc2c(c1)OCO2 (centres undefined)
  A: x	B: 34%	C: x	D: -0.2%

> CC(C)Sc1ccccc1C(=O)Nc1ccc2c(c1)n(C)c(=O)n2C
  A: x	B: 0%	C: 13%	D: -0.3%

> O=c1cc(-c2ccccc2Cl)oc2c(Br)ccc(O)c12
  A: 0&2	B: -9%	C: -28%	D: -0.6%

> CCOC(=O)CN(C(=O)CNC(=O)c1ccco1)C(C(=O)NC1CCCCC1)c1cccs1 (centres undefined)
  A: 3	B: -13%	C: -7%	D: u

> CCn1cc(C(=O)O)c(=O)c2cc(OC)ccc21
  A: 0	B: 15%	C: 3%	D: 3.6%

The listing continues.
Abbreviations – A = GLA inh pH 4.5; B = Rango dissoc inh; C = miR-21 reporter; D = Rango-impB inh
> O=C(NN=Cc1ccc2c(c1)OCO2)c1ccncc1
  A: x	B: 10%	C: x	D: 9.6%

> O=C(Nc1ccc(Cl)cc1)C1=Cc2ccccc2OC1
  A: -3	B: -2%	C: -20%	D: 1.4%

> O=C(CCSc1nnc(-c2ccncc2)o1)Nc1ccc(Cl)cc1
  A: 5	B: 19%	C: -1%	D: -0.5%

> CCCS(=O)(=O)c1c(S(=O)(=O)CCC)c2ccc(C(N)=O)cn2c1C(=O)c1ccc(OC)cc1
  A: 5	B: -2%	C: -11%	D: -5.0%

> N#Cc1ccc(-c2ccccc2)nc1SCC(=O)c1cccc(Cl)c1
  A: -5	B: u	C: -18%	D: -0.8%

> COc1ccc(-c2nc(=S)c3c(n2Cc2cccnc2)CC(C)(C)OC3)cc1
  A: 5	B: 0%	C: 5%	D: 0.2%

Record cards, from the list above. Order of screens: GLA inh pH 4.5, Rango dissoc inh, miR-21 reporter, Rango-impB inh
Listed for O=C(CCSc1nnc(-c2ccncc2)o1)Nc1ccc(Cl)cc1 = 5, 19%, -1%, -0.5%
Listed for O=C(Nc1ccc(Cl)cc1)C1=Cc2ccccc2OC1 = -3, -2%, -20%, 1.4%
Listed for CCCS(=O)(=O)c1c(S(=O)(=O)CCC)c2ccc(C(N)=O)cn2c1C(=O)c1ccc(OC)cc1 = 5, -2%, -11%, -5.0%
Listed for O=C(NN=Cc1ccc2c(c1)OCO2)c1ccncc1 = x, 10%, x, 9.6%
Listed for COc1ccc(-c2nc(=S)c3c(n2Cc2cccnc2)CC(C)(C)OC3)cc1 = 5, 0%, 5%, 0.2%

A portion of the library; count on the stated rates, not on these rows.
